Assay outcomes: PubChem, several laboratories
PrP 5UTR inh: suppresses PrP 5' UTR mRNA reporter expression | 0.35% of 340,000 active | inhibition, % (concentration not given with the values) | cell-based PrP 5' UTR mRNA reporter, plate reader;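 active = every replicate at 50% or more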;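 also: 0 = median of the neutral control wells; tested in H4 reporter cells; numbers are from one replicate; inactives centre near -14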
BJeLR viability: kills HRASV12-expressing BJeLR cells; BJeLR (HRASV12) viability, CellTiter-Glo ATP luminescence, 48 h; reference of the scale not given here; inhibition, % (no concentration beside the values); 0.17% of 300,000 active; AID 1554;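 active = replicate mean above 50%; inconclusive = above 50% but judged a plate artefact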;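 also: 50 nL library stock added to about 25 µL; numbers are from one replicate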
Sa RN4220 lethal: kills Staphylococcus aureus RN4220. S. aureus RN4220 growth, OD600, 16 h. inhibition, % (test concentration not listed). 0.33% of 330,000 active;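 active = z-score of -3 or lower and OD600 up to 0.18 on both plates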;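 also: plate controls were untreated cells for no effect and reference antibiotic for full effect; stock transfer was 100 nL into about 80 µL; one replicate is shown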
ugtP null kill: growth inhibition of S. aureus ugtP deletion strain | 0.54% of 330,000 active | growth inhibition, % (test concentration not listed) | S. aureus RN4220 ugtP deletion, OD600 growth, 16 h; some inactives read as strong as hits;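 active = z-score under -3 and OD600 up to 0.15 on both plates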;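 also: plate controls were untreated wells for no effect and antibiotic for full effect; wells of about 80 µL received 100 nL stock; the first replicate is given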
Autofluor counter: counter-screen for toxin protease inhibitors: compound fluorescence | compound autofluorescence counterscreen, microsphere flow cytometry; hits give high values | fluorescence intensity (test concentration not listed) | 3.1% of 360,000 active;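 active = at least 3 SD above the mean of all compounds, about 16000 in these data; inconclusive = too few beads counted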;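 also: 100 nL of 1 mM stock went into each well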
Mtb hypoxia inh: Mtb hypoxia fluorescent reporter inhibition | M. tuberculosis hypoxia-regulated fluorescent reporter, fluorescence | fluorescence inhibition, % (no concentration beside the values) | 0.1% of 300,000 active;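 active = 35 to 45% if threefold the growth effect, above 45% if 1.5-fold the growth effect; inactive = the rest, general growth blockers included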;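 also: wells of about 50 µL received 100 nL stock; 0% = vehicle wells and 100% = reference inhibitor wells; whole bacteria with a GFP reporter of the hypoxia response; strong numbers were not always called active; many hits fall short of the cut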
Mtb hypoxia inh growth: further read-out of Mtb hypoxia inh, marked with its call; growth inhibition, %; measured here: M. tuberculosis growth (absorbance);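 0% = vehicle and 100% = reference antibiotic; read after six days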
Starred values were filed as active, the others as inactive; u = inconclusive; x = no result given; & = joins results of further samples; ! = repeats disagree.

SMILES	PrP 5UTR inh	BJeLR viability	Sa RN4220 lethal	ugtP null kill	Autofluor counter	Mtb hypoxia inh	Mtb hypoxia inh growth
CSCCC(NC(=O)c1ccc(Cl)cc1)C(=O)OCC(=O)NCc1ccco1 (stereo not given)	-16	-3	-1.8	5	u	2	3
COc1ccc(N2CC(C(=O)Nc3cccnc3)CC2=O)cc1 (stereo not given)	-11	-8	3.6	3	3753	5	3
C=CCn1c(SCC(=O)N(C)CC(=O)Nc2ccc(C)cc2)nnc1-c1ccncc1	-20	x	5.9	-2	4370	16	10
CN(CCO)S(=O)(=O)c1ccc2c(c1)C(=NNC(N)=O)c1cc(S(=O)(=O)N(C)CCO)ccc1-2	-19	6	3.2	-4	4871	-1	4
S=C(Nc1ccccc1)N1CCCCCC1	-35	6	6.3	6	4396	8	2
O=C(Nc1ccccc1)C1CCCN(C(=O)c2ccc(Cl)cc2)C1 (stereo not given)	-21	13	2.6	6	2141	2	7
CC1CCN(C(=O)Cn2c(=O)n(-c3ccc(F)cc3)c(=O)c3sccc32)CC1	-9	23	1.8	1	4171	9	7
Cc1c(C(=O)Nc2cccc([N+](=O)[O-])c2)cnn1-c1ccccc1	-75	-6	3.5	4	3646	2	0
COc1ccc(N2C(=O)c3ccc(C(=O)Nc4ccc(NC(C)=O)cc4)cc3C2=O)cc1	1	-2	3.3	1	3343	-8	-7
Cc1nonc1OC(C)CNc1ccc([N+](=O)[O-])cc1 (stereo not given)	-25	-2	2.6	-4	4335	9	2
CCCc1cc2c(cc1NC(=O)c1ccc(Br)cc1)OCO2	-24	-3	-14	4	2517	5	11
CC(C)(CCl)C(=O)Nc1ccc(OC(F)(F)F)cc1	-24	4	0.3	-4	4728	-1	11
CCCn1c(=N)n(CC(=O)c2ccc(OCC(=O)OC)cc2)c2ccccc21	-5	-2	2.9	3	2933	3	8
COc1ccc(N2CCN(C(=O)c3ccc(Cl)c(S(=O)(=O)N4CCCC4)c3)CC2)cc1	-11	5	1.2	10	3219	10	6
CC(=O)c1cccc(S(=O)(=O)NCC(C)(C)N2CCOCC2)c1	-16	0	2.3	2	3695	5	0
CCn1c(SCC(=O)NCC2CCCO2)nc2ccccc21 (stereo not given)	-16	x	5.1	3	4092	-1	6
CC(Cl)=CCSc1nn2c(=O)c3ccccc3nc2s1	x	x	3.7	-3	x	10	10
COc1ccc(Cl)cc1Nc1nc(-c2sc(NC(=O)CC(C)C)nc2C)cs1	-17	-2	-9.6	2	3479	7	7
O=C(O)CCS(=O)(=O)c1ccc(-c2ccccc2)cc1	-7	-1	4.3	1	2000	5	4
CC(C)(C)c1ccc(C(=O)Nc2ccccc2Cl)cc1	-90	-17	-2.3	11	4266	2	-13
CC#CCN1c2ccccc2[C@]23C[C@@H](C(=O)OC)N(C(=O)OCC)C2=NC(C(=O)OC)=C(C(=O)OC)[C@H]13	13	-5	x	x	3634	x	x
CC1CN(C/C(=N\O)C23CC4CC(CC(C4)C2)C3)CC(C)O1 (stereo not given)	-10	7	x	x	4361	x	x
CC(C)(C)Nc1nc2ccc([N+](=O)[O-])cc2o1	-16	4	3.9	10	3835	7	1
COc1ccc(C(C)=NNC(=O)OC(C)(C)C)cc1[N+](=O)[O-]	x	x	6.2	0	x	14	4
O=C(CSc1ncccn1)Nc1ccccc1	-18	19	0.7	-2	20507*	-4	3
New compounds follow.
SMILES	PrP 5UTR inh	BJeLR viability	Sa RN4220 lethal	ugtP null kill	Autofluor counter	Mtb hypoxia inh	Mtb hypoxia inh growth
OC(COc1ccccc1)CN1CCN(c2ccccc2)CC1 (stereo not given)	2	x	1.9	1	3837	-4	4
CCS(=O)(=O)NCc1csc(-c2ccccc2)n1	-38	1	-4.6	-7	5427	4	4
COc1cccc(Cn2nnc(C(=O)NCc3ccccc3Cl)c2N)c1	-11	7	-2.1	4	4189	x	x
OC(COCC1CC=CCC1)Cn1cnc2ccccc21 (stereo not given)	5	11	-0.2	1	4189	4	3
Cc1ccc(-n2nc3c(Cl)nnc(C)c3c2C)cc1	-10	9	0.5	3	2199	8	4
CC(=O)c1cccc(NC(=S)NCc2ccccc2)c1	-30	-10	0.7	15	3931	1	6
Cc1cc(C)n(CC(=O)N/N=C/c2cc(Br)cc([N+](=O)[O-])c2O)n1	-14	-11	x	x	2570	x	x
O=c1cc(CSc2nc(NCc3ccccc3)c3ccccc3n2)nc2ccc(Cl)cn12	-18	-2	5.4	14	10280	2	8
O=C(CCSc1ccccc1)Nc1ccc(OCc2ccccc2)cc1	-7	5	-1.0	4	2341	5	5
CCN(CC(=O)NCc1ccc(F)cc1)CC(=O)Nc1ccc(S(=O)(=O)N2CCCC2)cc1	-6	3	3.8	2	3355	-2	15
O=c1c(Cc2ccc(Cl)cc2Cl)c(O)ccn1Cc1ccncc1	0	0	24	5	4227	3	2
COc1ccc(CCNC(=O)c2cc([N+](=O)[O-])cc([N+](=O)[O-])c2)cc1OC	-23	-2	-0.2	14	3694	x	x
CC(=O)N1CSCC1C(=O)O (stereo not given)	-6	-2	-2.2	-3	3326	4	6
CC1(C(=O)Nc2cccc(S(=O)(=O)N3CCOCC3)c2)Cc2ccccc2C(=O)O1 (stereo not given)	-27	-11	1.6	-1	3217	6	9
CCCCCCCN=CC1=C(O)CC(c2ccccc2)CC1=O (stereo not given)	1	-19	4.2	11	10285	9	6
Cc1ccc2c(c1)NCC(C(=O)NC1CCCCC1)O2 (stereo not given)	-1	9	-0.2	-5	7931	-1	6
O=C(CNS(=O)(=O)c1ccc(F)c(Cl)c1)NCCc1ccccc1	-13	-1	3.9	5	3811	-4	0
CC(=O)c1c(Nc2ccccc2)sc(C(=O)c2ccccc2)c1C	2	-3	x	x	2055	x	x
CC(C)CC(=O)Nc1nnc(S(=O)(=O)N(C)Cc2ccco2)s1	-20	0	3.9	-7	5350	8	2
S=c1[nH]nc(CCc2ccccc2)n1-c1ccc(Cl)cc1	-20	4	4.5	1	3608	13	6
O=C(Cc1cccs1)N1CCN(C(=O)C2CCCO2)CC1 (stereo not given)	-26	-1	2.2	-2	11286	13	10
CCN(CC)S(=O)(=O)c1cccc(C(=O)N/N=C/c2ccccc2OCC(=O)O)c1	-4	1	x	x	3865	x	x
C=CCC(CC(=O)NC(CO)Cc1ccccc1)C(=O)NC(COC(=O)C(CC=C)Cc1ccc(F)cc1)Cc1c[nH]c2ccccc12 (stereo not given)	x	x	0.9&-4.4&-1.2	1&5&-23	x	36*!	13*!
Cc1onc(-c2ccccc2)c1C(=O)Nc1nnc(C(C)C)s1	-18	-3	10	2	6918	14	2
CCn1cc(C(=O)N2CCCC2)c(=O)c2cc(S(=O)(=O)N3CC(C)CC(C)C3)ccc21 (stereo not given)	-19	3	1.7	6	4512	-1	-6
(list continues)
SMILES	PrP 5UTR inh	BJeLR viability	Sa RN4220 lethal	ugtP null kill	Autofluor counter	Mtb hypoxia inh	Mtb hypoxia inh growth
C=CCN1C(=O)C(=O)N(Cc2nc3ccccc3s2)C1=O	-43	-1	-1.1	0	4109	11	9
COc1ccc(CCN=C(N)NS(=O)(=O)c2ccc(F)cc2)cc1OC	-14	-4	0.5	-2	6062	3	2
CC1(C)CC(=O)C2=C(C1)Nc1ccccc1NC2c1cccnc1 (stereo not given)	11	6	2.3	-1	3514	-5	10
COc1ccc(-n2ncc3c2CC(C)(C)CC3NC(=O)c2cn[nH]c2)cc1 (stereo not given)	-6	0	x	x	5986	x	x
CCCCNc1ccc2nsnc2c1[N+](=O)[O-]	-8	5	5.2	-1	2486	3	-2
CCCNC(=O)c1ccc(C2SCC(=O)N2CCc2ccccc2)cc1 (stereo not given)	-30	3	2.5	6	9045	-1	11
CC(C)N1CCc2c(sc(NC(=O)c3ccc([N+](=O)[O-])o3)c2C(N)=O)C1	95*	5	x	x	6881	x	x
COc1ccc2nc(C)cc(SCC(=O)N3CCCCC3)c2c1	-5	-18	4.7	-9	4665	17	25
COc1ccc(OC)c(C(c2c(C)[nH][nH]c2=O)c2c(C)[nH][nH]c2=O)c1	1	-4	3.3	4	3041	10	4
C[C@@H]1CN(C(=O)c2nc3ccc(Cl)cn3c2CN(C)CCc2cnn(C)c2)C[C@H](C)O1	-14	5	4.2	6	4994	12	0
O=C(Nc1ccon1)c1cccc(S(=O)(=O)N2CCCCC2)c1	-8	10	4.9	12	4223	11	12
C=CCNc1nnc(Sc2ncccc2[N+](=O)[O-])s1	-17	3	2.5	8	4273	22	39
S=C(NC1CCCCCC1)NC1CCCC1	-20	-3	1.6	3	2593	x	x
O=C(/C=C/c1ccccc1)NC(=S)NNS(=O)(=O)c1ccccc1	-33	4	6.3	7	4298	1	6
CC1(c2ccc(OC(F)F)cc2)NC(=O)N(CC(=O)Nc2ccccc2)C1=O (stereo not given)	-26	-4	-4.8	6	3571	10	11
Cc1c(NC(=O)c2cnn3c2NC(c2ccco2)CC3C(F)(F)F)c(=O)n(-c2ccccc2)n1C (stereo not given)	-14	x	1.3	0	2355	x	x
COc1ccc(C(CNC(=O)c2cc(SC)ccc2Cl)N(C)C)cc1 (stereo not given)	-5	3	2.2	1	3494	15	14
O=C(CCNS(=O)(=O)c1ccc(Cl)cc1)N1CCN(c2ccccn2)CC1	-11	2	2.1	2	3738	2	-1
Cc1ccc(S(=O)(=O)N2CCN(C(C)C)CC2)cc1	-6	2	-1.4	1	3596	3	1
O=c1nc2ccc(Cl)cn2c2ccc(S(=O)(=O)N3CCCCC3)cc12	-16	-2	x	x	3582	x	x
O=C(CSc1nnc(COc2ccc(Cl)cc2)o1)N1CCCCC1	-32	8	5.6	-2	3093	13	3
CCCn1c(NCc2cccc(OC)c2O)nc2ccccc21	-29	0	-1.9	-2	6578	-75	-20
CCCc1ccc(NC(=O)C2CCCN(c3cnccn3)C2)cc1 (stereo not given)	-9	-3	11	9	4287	7	4
COc1cccc(N(CC(=O)NCCSCc2ccc(C)cc2)S(C)(=O)=O)c1	-15	2	2.1	10	2905	1	-6
Fc1ccc(NC2=NCCCCC2)cc1	-19	-2	6.7	8	3680	1	0

Next section; it opens with the 5 that closed the last part.
SMILES	PrP 5UTR inh	BJeLR viability	Sa RN4220 lethal	ugtP null kill	Autofluor counter	Mtb hypoxia inh	Mtb hypoxia inh growth
O=C(CSc1nnc(COc2ccc(Cl)cc2)o1)N1CCCCC1	-32	8	5.6	-2	3093	13	3
CCCn1c(NCc2cccc(OC)c2O)nc2ccccc21	-29	0	-1.9	-2	6578	-75	-20
CCCc1ccc(NC(=O)C2CCCN(c3cnccn3)C2)cc1 (stereo not given)	-9	-3	11	9	4287	7	4
COc1cccc(N(CC(=O)NCCSCc2ccc(C)cc2)S(C)(=O)=O)c1	-15	2	2.1	10	2905	1	-6
Fc1ccc(NC2=NCCCCC2)cc1	-19	-2	6.7	8	3680	1	0
CC(CC(=O)Nc1ccc2c(c1)OCO2)c1ccccc1 (stereo not given)	-12	3	-1.5	-6	3696	-2	9
COC(=O)C(CCSC)NS(=O)(=O)c1ccccc1Br (stereo not given)	x	x	5.0	6	x	24	11
CCC1(CC)NC(=O)N(CC(=O)OCC(=O)Nc2cc(C)ccc2C)C1=O	-9	-5	-0.6	-3	4451	-3	9
Cc1cc(C)c2c(c1)-c1c(ssc1=S)C(C)(C)N2C(=O)CN1C(=O)c2ccccc2C1=O	-18	3	4.2	-19	1795	12	9
C=C(C)C1CC=C(CN2CCN(Cc3ccccc3)CC2)CC1 (stereo not given)	-15	-3	2.4	23	4042	22	13
CN(c1ccccc1)S(=O)(=O)c1cccc(C(=O)NC2CC(C)(C)NC(C)(C)C2)c1	5	x	-1.8	-4	5668	-8	7
O=[N+]([O-])c1ccccc1S(=O)(=O)Nc1ccc(-c2ccc(N3CCCC3)nn2)cc1	-24	-5	2.4	3	u	8	12
COc1ccc(NS(=O)(=O)c2ccc3[nH]c(=O)[nH]c3c2)cc1	-22	7	2.7	4	3198	-3	-1
Cc1cccc(NC(=O)c2ccc3nc(N4CCOCC4)sc3c2)c1C	-26	0	1.9	14	4268	4	6
C=CCn1c(=NC(=O)CN2C(=O)CCC2=O)sc2cccc(OC)c21	-24	-5	-0.9	2	5226	10	2

In the list so far, these contain a CF3 group.
SMILES	PrP 5UTR inh	BJeLR viability	Sa RN4220 lethal	ugtP null kill	Autofluor counter	Mtb hypoxia inh	Mtb hypoxia inh growth
CC(C)(CCl)C(=O)Nc1ccc(OC(F)(F)F)cc1	-24	4	0.3	-4	4728	-1	11
Cc1c(NC(=O)c2cnn3c2NC(c2ccco2)CC3C(F)(F)F)c(=O)n(-c2ccccc2)n1C (stereo not given)	-14	x	1.3	0	2355	x	x
